miR-21 FLuc: miR-21 reporter, rising signal | HeLa miR-21 FLuc reporter, luciferase, 48 h | Potency, µM (highest dose often 38.3 µM), for the others: at the top dose reporter change, positive = more light | 340,000 tested, under 10 active; active = well fitted rising curve with a large enough effect; inconclusive = small, poorly fitted or top-dose-only effect; inactive = no such curve, though single readings can be large or run the other way;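 further: % of control where 0% means no effect; miR-21 action dims this reporter so a rising signal means less miR-21 action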
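HeLa miR-21-FLuc reporter line, endogenous miR-21; 2000 cells/well in DMEM/10% FBS; compound titration up to ~40uM final, 48 h, 37 degree Celsius; luciferase detection reagent, 15 min lysis, CCD luminescence.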
Rango complex inh: Rango-importin beta binding inhibition. Potency, µM (highest dose often 92.2 µM), inactives show at the top dose inhibition of complex formation. actives 0.031% (n = 340,000). Rango CFP/YFP FRET sensor + importin beta, 45 min. AID 540263; active = rising FRET ratio curve, often small or poorly fitted; inconclusive = mostly compound fluorescence or quenching in the first reads; inactive = flat curves in all reads;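 further: potency means the concentration at half of the fitted maximal effect; 0% = DMSO wells and 100% = buffer wells lacking importin beta; nearly all actives have a fitted effect of over 15% in size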
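FRET biosensor Rango (snurportin 1 IBB between N-terminal EYFP and C-terminal Cerulean), 50 nM in PBS/1 mM DTT/0.02% Tween-20/0.1% BSA, preincubated 5 min RT with compound; 0.125 microM importin beta added, 45 min RT, CFP/YFP FRET ratio read.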
Rango dissoc inh: inhibitors of RanGTP-induced Rango-importin beta complex dissociation; O95149+P62826; Biochemical FRET Rango-importin beta, RanGTP-induced dissociation; Potency, µM (doses to about 46.1 µM), for inactives: top-dose activity change, negative = inhibition; actives 0.071% (n = 340,000); active means falling FRET ratio curve, often poorly fitted, with flat reads before Ran was added; inconclusive means other falling curves, or compound fluorescence or quenching; inactive means flat or rising ratio curve;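 further: potency means the concentration at half of the fitted maximal effect; % of control where 0% means no effect; nearly all actives have a fitted effect of over 45% in size; -100% = wells without RanGTP and RCC1; the record marks most hits as doubtful in a second field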
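Quantitative HTS using a FRET biosensor: 0.1 uM Rango, 0.25 uM importin beta, 0.6 uM Ran, 2 mM GTP, 0.2 uM RCC1 final, PBS with DTT, Tween-20 and BSA. Post-read taken 45 min after Ran addition.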
GLA inh pH 4.5: inhibitors of human alpha-galactosidase A at pH 4.5. P06280. purified enzyme, 4-MU-alpha-Gal fluorescence, pH 4.5. activity change, negative = inhibition, % at 105 µM. 230,000 tested, under 10 active; inconclusive = small, poorly fitted or top-dose-only inhibition, or a rising curve; inactive = flat fitted curve, though single readings scatter; no compound was filed as active;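 further: 0% = full activity with enzyme and -100% = basal without enzyme; dose as in the result columns while the protocol names 77 µM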
Target sequence (P06280 whole entry, looked up): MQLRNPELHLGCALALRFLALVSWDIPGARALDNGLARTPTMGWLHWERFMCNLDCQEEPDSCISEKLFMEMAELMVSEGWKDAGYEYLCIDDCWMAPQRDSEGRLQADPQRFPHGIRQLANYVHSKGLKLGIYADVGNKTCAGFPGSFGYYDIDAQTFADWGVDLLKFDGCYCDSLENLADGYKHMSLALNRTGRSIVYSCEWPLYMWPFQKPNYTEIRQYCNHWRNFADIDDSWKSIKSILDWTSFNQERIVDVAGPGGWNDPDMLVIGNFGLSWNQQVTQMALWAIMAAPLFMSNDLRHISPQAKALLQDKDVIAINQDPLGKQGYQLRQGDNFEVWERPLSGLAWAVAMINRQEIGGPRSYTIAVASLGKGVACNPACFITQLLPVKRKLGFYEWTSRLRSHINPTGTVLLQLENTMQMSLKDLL
* hit, by the source's call; ? = inconclusive; nt = no result given; & = joins results of further samples. The list is partial. The share of hits here may be higher or lower than overall.

SMILES	miR-21 FLuc	Rango complex inh	Rango dissoc inh	GLA inh pH 4.5
Cc1ccc(SCCNC(=O)CN(c2ccc3c(c2)OCO3)S(C)(=O)=O)cc1	-2%	-1.2%	6%	6
CC1(C)CC(=O)C(C(c2ccc(Br)cc2)C2C(=O)CC(C)(C)CC2=O)C(=O)C1	0%	-4.6%	-4%	nt
Cc1cccn2c(=O)c3cc(C(=O)NCCCn4ccnc4)n(C)c3nc12	2%	?	-10%	?
CCC(C)c1ccc(NC(=O)N2CCN(C(=O)C3CCCO3)CC2)cc1 (stereo not drawn)	-1%	1.1%	11%	nt
Nc1c(-c2ccccc2)c(CSc2nc3ccccc3[nH]2)nn1-c1cccc(C(=O)O)c1	-2%	-0.5%	-15%	6
O=C1c2sc3nc4n(c(=O)c3c2CCC1Br)CCCCC4 (stereo not drawn)	-59%	1.1%	11%	9
Nc1nc(SCc2ccccn2)c2ncn(C3CCCC3)c2n1	nt	-1.4%	10%	nt
NS(=O)(=O)c1cccc(NC(=O)CSc2nnc(-c3ccccc3)o2)c1	nt	-0.5%	-7%	nt
CC(C(=O)N1CCCC1)N(C)CC(=O)Nc1cccc(F)c1 (stereo not drawn)	nt	-0.3%	-7%	nt
O=C(c1ccc([N+](=O)[O-])s1)N1CCc2ccccc21	-9%	0.2%	4%	nt

As a short view, some entries already given:
SMILES	miR-21 FLuc	Rango complex inh	Rango dissoc inh	GLA inh pH 4.5
Nc1nc(SCc2ccccn2)c2ncn(C3CCCC3)c2n1	nt	-1.4%	10%	nt
NS(=O)(=O)c1cccc(NC(=O)CSc2nnc(-c3ccccc3)o2)c1	nt	-0.5%	-7%	nt
CC(C(=O)N1CCCC1)N(C)CC(=O)Nc1cccc(F)c1 (stereo not drawn)	nt	-0.3%	-7%	nt
O=C(c1ccc([N+](=O)[O-])s1)N1CCc2ccccc21	-9%	0.2%	4%	nt

The list goes on.
SMILES	miR-21 FLuc	Rango complex inh	Rango dissoc inh	GLA inh pH 4.5
CCN(C(=O)COC(=O)c1ccc(C)c(S(=O)(=O)N2CCOCC2)c1)C1CCS(=O)(=O)C1 (stereo not drawn)	nt	-2.6%	20%	nt
O=C(Nc1ccc(Cl)cc1)c1ccc2c(=O)n3c(nc2c1)CCCCC3	4%	0.8%	-27%	nt
O=C(CSc1nnc(Cc2cc(=O)[nH]c(=O)[nH]2)n1-c1ccccc1)NCC1CCCO1 (stereo not drawn)	-1%	1.8%	-2%	-7
CC[C@]12c3[nH]c4ccc(Cl)cc4c3CCN1C(=O)[C@@H](CC(=O)NCCc1ccccn1)C[C@@H]2C(=O)N1CCN(C(=O)C2CC2)CC1	nt	-2.7%	0%	nt
CCCCn1c(=O)[nH]c(=O)c2c1nc(-c1ccc(C)c([N+](=O)[O-])c1)n2CC	-20%	0.8%	1%	-11
O=C(Nc1nccs1)c1cc([N+](=O)[O-])ccc1Cl	21%	1.7%	18%	nt
NC(N)=NC(N)=Nc1ccc(SC(F)(F)F)cc1	-1%	?	?	-7
CCn1nc(C(=O)Nc2cccc(C(F)(F)F)c2)c(Cl)c1Cl	-4%	-1.1%	-1%	-4
Cc1ccc(N2CC(C(=O)Nc3c(C)n(C)n(-c4ccccc4)c3=O)CC2=O)cc1 (stereo not drawn)	-1%	-3.6%	-1%	9
C/C(=N\Nc1nncc2ccccc12)c1ccc(C(C)(C)C)cc1	-62%	4.5%	-2%	nt
CCOC(=O)COc1ccc(C2NC(C(=O)O)CS2)cc1 (stereo not drawn)	-3%	0.8%	7%	-10
Cc1c(C(=O)N(Cc2cccs2)C2CCS(=O)(=O)C2)oc2ccccc12 (stereo not drawn)	-14%	1.0%	-10%	-2
O=C(Oc1cc(-c2ccccc2)no1)c1ccc(F)cc1	2%	0.5%	0%	-1
COc1cc(N)cc(NC(=O)c2ccncc2)c1	-9%	-0.7%	7%	-2
CC(C)c1ccc(NC(=O)C2=NNC(=O)CC2)cc1	-72%	-0.8%	-13%	-2
O=C(Nc1ccccc1)c1ccc(NCCN2CCOCC2)c(S(=O)(=O)N2CCOCC2)c1	9%	-5.9%	0%	-7
CCCSCCCNC(=O)c1cc2c(s1)CS(=O)(=O)C2	0%	-0.7%	2%	2
COc1ccccc1N(CC(=O)NCC1CCCO1)C(=O)CCC(=O)Nc1nccs1 (stereo not drawn)	-7%	5.0%	7%	-4
NC(=O)c1sc2nc(-c3cccs3)ccc2c1N	-139%	?	?	nt
O=C(c1cc2cc(C(F)(F)F)ccc2s1)N1CCOCC1	-44%	-6.5%	-18%	-20
Cn1c(=O)c2c(nc(NCC3CCCO3)n2Cc2ccccc2)n(C)c1=O (stereo not drawn)	-10%	-0.1%	6%	-10
O=C(CN1C(=O)NC2NC(=O)NC21)NC1CCCCC1 (stereo not drawn)	nt	-1.0%	14%	nt
Cc1cccc(Nc2nc(N)nc(-c3oc4ccccc4c3C)n2)c1	-19%	-0.7%	8%	-2
COc1ccc(C2C(C(=O)O)c3ccccc3C(=O)N2Cc2ccco2)cc1 (stereo not drawn)	-3%	-0.3%	16%	-6
O=C(Nc1nc(=O)c2ccccc2s1)c1ccc(F)cc1	-38%	0.0%	-2%	2
COc1ccc(CNC(=O)C(C)OC(=O)Cn2cnc3c2c(=O)n(C)c(=O)n3C)cc1 (stereo not drawn)	nt	0.0%	-6%	nt
Nc1ccc(-c2nc3c(Cl)cc(N)cc3[nH]2)cc1	?	?	-13%	6
OC1=C(O)c2nc3cc(F)ccc3nc21	-3%	3.5%	1%	4
O=C(NCCc1c[nH]c2ccccc12)C1CCCN(S(=O)(=O)c2ccccc2)C1 (stereo not drawn)	16%	5.3%	0%	nt
O=C(/C=C/c1ccc2c(c1)OCO2)Nc1cc(S(=O)(=O)N2CCOCC2)ccc1N1CCOCC1	-4%	-2.4%	-3%	0
COc1cccc(CNc2nc3ccccc3n2C(C)C)c1O	-9%	0.0%	-7%	nt
Nc1c(C(=O)NCc2ccco2)c2nc3ccccc3nc2n1CCc1ccccc1F	15%	?	?	13
CCCN(CCC)S(=O)(=O)c1nc2nc(C)cc(C)n2n1	-1%	0.9%	-18%	-2
CN1CCC(OC(=O)C23CCC(C)(C(=O)O2)C3(C)C)CC1 (stereo not drawn)	-3%	-0.9%	12%	-7
COc1ccc(NC(=S)N(CCC(C)C)C2CCN(C(C)C)CC2)cc1Cl	0%	-1.9%	13%	nt
COc1ccc(-c2csc(Nc3ccc(S(=O)(=O)Nc4cc(OC)nc(OC)n4)cc3)n2)cc1	-6%	3.8%	44%	-11
Cc1nn(C)c(C(=O)N/N=C/c2cccc(Oc3ccccc3)c2)c1Br	-15%	2.8%	-15%	nt
Cc1cc(N2CCOCC2)nc2ccc(NC(=O)CCC(=O)N3CCN(c4ccc(F)cc4)CC3)cc12	8%	-0.4%	18%	nt
C[C@@]12C(=O)N(Cc3ccccc3)CC(=O)N1[C@H]1c3ccccc3OC[C@@H]1[C@@H]2c1ccccc1	nt	-0.1%	10%	nt
Cc1csc(SCC(=O)Nc2cc(S(=O)(=O)N3CCCC3)ccc2Cl)n1	-7%	-1.4%	14%	-6

Another view of 3 compounds above:
Structure | miR-21 FLuc | Rango complex inh | Rango dissoc inh | GLA inh pH 4.5
Nc1c(-c2ccccc2)c(CSc2nc3ccccc3[nH]2)nn1-c1cccc(C(=O)O)c1 | -2% | -0.5% | -15% | 6
O=C1c2sc3nc4n(c(=O)c3c2CCC1Br)CCCCC4 (stereo not drawn) | -59% | 1.1% | 11% | 9
Nc1nc(SCc2ccccn2)c2ncn(C3CCCC3)c2n1 | nt | -1.4% | 10% | nt

Going on with the list:
SMILES	miR-21 FLuc	Rango complex inh	Rango dissoc inh	GLA inh pH 4.5
CC1CCN(S(=O)(=O)N2CCC(C(=O)O)CC2)CC1	-5%	1.7%	-3%	0
O=C(C=Cc1ccccc1)c1c[nH]c2ccccc2c1=O	nt	2.7%	0%	nt
CCOc1ccc(C(CC(=O)O)NC(=O)c2sc3ccccc3c2Cl)cc1 (stereo not drawn)	-4%	0.4%	-16%	2
O=C(Nc1ccc(F)cc1F)c1c(C(F)(F)F)ccnc1Oc1cccc(C(F)(F)F)c1	0%	-0.6%	5%	-5
C=Cn1cc[n+](CC(=O)c2ccc(OC)cc2)c1	1%	1.8%	-6%	nt
COc1cccc(C(=O)C2CCCN(C/C=C/c3ccccc3OC)C2)c1 (stereo not drawn)	-7%	4.3%	6%	-4
O=C(COC(=O)c1nn(-c2ccccc2)c(=O)c2ccccc12)NC1CCS(=O)(=O)C1 (stereo not drawn)	-1%	-3.1%	-20%	-4
CCN1CCN(C(c2cccs2)C(C)NC(=S)Nc2cc(C)ccc2C)CC1 (stereo not drawn)	16%	-0.6%	11%	6
COc1ccc(CCC(=O)Nc2ccc(C)c(S(=O)(=O)N(C)C)c2)cc1OC	22%	-1.5%	11%	-10
COc1ccc(OCC(=O)Nc2cc3oc4ccccc4c3cc2OC)cc1	-5%	0.8%	17%	-9
NC(=O)C1=C[C@@H](c2coc3ccccc3c2=O)C[C@@H](OCc2ccc(CO)cc2)O1	-5%	-1.6%	5%	6
O=C(CCN1C(=O)S/C(=C\c2cccs2)C1=O)Nc1nccs1	1%	3.8%	0%	-4
CSc1nc(C)c2c(n1)N(c1ccc(O)cc1)CC2	-12%	3.0%	?	5
CCNc1nc(SC(C)C(=O)OC)nc(N2CCOCC2)n1 (stereo not drawn)	-13%	9.1%	-1%	-5
COc1cc(NC(=O)COC(=O)[C@@H]2CCCN2S(=O)(=O)c2ccc(Cl)cc2)cc(OC)c1OC	1%	0.1%	-10%	-16
CCOc1ccc(NC(=O)c2ccccc2OCC(=O)c2ccccc2)cc1	-26%	-5.2%	-24%	-16
COc1ccc(CC(C)N2CCN(c3ccccc3OC)CC2)cc1OC (stereo not drawn)	-6%	-1.4%	1%	5
O=C(COC(=O)Cc1c(F)cccc1Cl)NCCC1=CCCCC1	0%	2.6%	19%	5
COc1cc2c(cc1OC)CN(c1ccc(C(F)(F)F)cn1)CC2	-32%	-1.0%	-1%	nt
COc1cc(/C=N/NC(=O)c2nc(-c3ccccc3)n(-c3ccccc3)n2)ccc1O	2%	-0.7%	-3%	-6
CC1(c2nnc(-c3ccc(F)cc3)o2)CC(c2ccccc2)=NO1 (stereo not drawn)	-16%	0.7%	12%	3
CC1(OC(=O)CCc2ccccc2)C(=O)C=C2C=C(c3ccc(C#N)cc3)N(C3CCCC3)C=C2C1=O (stereo not drawn)	7%	?	?	-8&-8
Cc1cc(-c2n[nH]c(=S)n2/N=C/c2c[nH]c3ccccc23)n[nH]1	-5%	?	?	-17
CCOc1cc(C=O)ccc1OCC(=O)NC(C)(C)C	-1%	-2.3%	2%	7
O=C1NC(=O)C(c2cccs2)(c2cccs2)N1	-1%	1.8%	-16%	nt
Fc1ccc2c(c1)C(c1ccc(N3CCOCC3)cc1)=NNC(c1cccs1)=N2	4%	5.5%	22%	-2
NS(=O)(=O)c1ccc(NC(=O)CN2C(=O)C3C4C=CC(C4)C3C2=O)cc1 (stereo not drawn)	-1%	2.0%	1%	?
O=C(COC(=O)c1ccccc1O)NC1CCCc2ccccc21 (stereo not drawn)	nt	3.5%	5%	nt
O=C(CCCN1C(=O)c2ccccc2C1=O)Nc1ccc(S(=O)(=O)N2CCOCC2)cc1	-1%	1.2%	4%	-1
COc1cccc(-c2nc(CS(=O)(=O)c3ccccc3)no2)c1	-41%	-0.1%	-6%	-8
CC(Nc1cc(N2CCOCC2)ccc1[N+](=O)[O-])c1ccccc1 (stereo not drawn)	-8%	0.2%	-1%	-5
COCCn1c(SCC(=O)OCc2ccccc2)nc2c1c(=O)[nH]c(=O)n2C	-5%	1.2%	4%	7
O=C(Cc1c(F)cccc1Cl)Nc1cccnc1	-6%	2.7%	-9%	-8
Cc1cnc(C(=O)OCc2ccc(C#N)cc2)cn1	0%	-0.5%	-3%	nt
Cc1cc(C)nc(SSc2nc(C)cc(C)n2)n1	1%	3.6%	-10%	nt
CN1CCN(C(=O)C23CC4CC(CC(C4)C2)C3)CC1	-13%	-1.0%	-10%	-6
COc1cccc(OC)c1C(=O)OCC(=O)N(C)c1ccccc1	-3%	-1.9%	-1%	nt

Screening data deposited in PubChem by National Center for Advancing Translational Sciences (NCATS).
